T cruzi repl: inhibitors of intracellular T. cruzi growth, primary screen, luminescence, NIH3T3 host cells; actives 1.4% (n = 300,000); AID 1885, 2009; T. cruzi beta-gal in NIH3T3, 90 h; inhibition, % (no concentration beside the values);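 active = mean inhibition across valid replicates above about 55%, limit read from the data; inconclusive = mean below that limit but half or more replicates reach it; inactive = mean below it, under half of replicates reach it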;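 note: signal also drops with host cell toxicity which is not excluded here; 0% = plate median of DMSO wells and 100% = zero luminescence signal; higher percent means less beta-gal luminescence so fewer parasites; stock transfer was 50 nL into about 50 µL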
Ecoli rRNA inh: reduced GFP signal of wild-type E. coli, primary screen, bacterial rRNA inhibitor project, GFP/RFP fluorescence, OD600, single point. E. coli WT GFP vs humanized-ribosome RFP mutants, 24 h; active compounds read low; DMSO median 0, no signal -100. GFP signal change (wild-type ribosome), % (test concentration not listed). actives 1.6% (n = 350,000). AID 720706, 2013;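 active = significant combined selectivity score with lowered wild-type GFP, culture density cut under 30%, mutant RFP and density less affected; inactive = any of these conditions unmet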; note: one replicate is shown; some compounds called inactive have numbers as strong as hits
MLL AF4-AF9 inh: inhibitors of AF4 peptide binding to AF9, primary screen, biochemical, AlphaScreen, biotin-AF4 peptide, FLAG-AF9, single point; inhibition, % at 10 µM; actives 0.47% (n = 350,000);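 active = every replicate reaching a set inhibition limit, whatever the replicate mean, cut at about 25% in these data; inconclusive = mean inhibition reaches that limit but some replicates miss it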;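 note: 0% = plate neutral control median and 100% = total signal loss; the record names both 10 and 1 µM as test concentration; the first replicate is given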
Target sequence (P42568 whole entry, looked up): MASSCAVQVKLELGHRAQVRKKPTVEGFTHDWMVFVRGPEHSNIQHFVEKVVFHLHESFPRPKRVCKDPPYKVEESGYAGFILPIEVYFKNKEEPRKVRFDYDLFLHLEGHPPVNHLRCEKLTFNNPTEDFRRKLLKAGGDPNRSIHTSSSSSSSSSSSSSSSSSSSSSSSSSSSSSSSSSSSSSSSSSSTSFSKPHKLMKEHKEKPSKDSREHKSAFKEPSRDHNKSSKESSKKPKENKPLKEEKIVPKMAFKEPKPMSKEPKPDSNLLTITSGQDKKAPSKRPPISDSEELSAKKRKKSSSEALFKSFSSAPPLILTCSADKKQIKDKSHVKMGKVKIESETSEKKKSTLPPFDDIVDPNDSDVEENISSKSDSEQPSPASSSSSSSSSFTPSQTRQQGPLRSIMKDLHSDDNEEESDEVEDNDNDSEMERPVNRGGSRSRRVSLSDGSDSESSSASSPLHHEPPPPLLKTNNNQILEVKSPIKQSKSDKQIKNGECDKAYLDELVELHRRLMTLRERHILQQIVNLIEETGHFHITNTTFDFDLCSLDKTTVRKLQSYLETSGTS
Calb FLC: C. albicans growth inhibition with fluconazole, primary screen, CaCi-2 strain, Alamar Blue fluorescence; actives 0.57% (n = 300,000); C. albicans CaCi-2 (fluconazole-resistant clinical isolate) + fluconazole, 48 h; growth inhibition, % (concentration not given with the values);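 active = most replicates above 75%; inconclusive = exactly half above 75%; inactive = most below 75%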;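 note: all wells also contain fluconazole at 8 µg/ml as a sub-toxic cotreatment; 0% = median of DMSO wells and 100% = median of geldanamycin control wells; wells of about 8 µL received 7.5 nL stock; the first replicate is given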
A1 inh: caspase 3/7 activation in MEF A1-2A-BIM cells, primary screen, A1 inhibitor project, cell-based, luminescence, HTS; Caspase-Glo 3/7 luminescence, 3 h; percent of clofoctol response, vehicle zero; caspase activation, % (test concentration not listed); actives 0.066% (n = 330,000);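 active = over half of replicate activation scores above 10%, or exactly half above 10 with the replicate mean above 10; inconclusive = replicate mean below 10 yet half the replicates above 10; inactive = over half of replicates below 10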;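 note: wells of about 30 µL received 50 nL stock; many hits fall short of the cut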
RanGTP-Impb inh: inhibitors of RanGTP-importin-beta interaction, primary screen, biochemical, FRET, CFP-Ran, YFP-importin-beta, homogeneous; inhibition, % (concentration not given with the values); actives 1.1% (n = 300,000); cell-free CFP-Ran/YFP-importin-beta FRET ratio;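 active = most replicates above 15%; inconclusive = exactly half above 15%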;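 note: 0% = DMSO wells and 100% = Ran loaded with GDP instead of GTP; wells of about 40 µL received 100 nL stock; the first replicate is given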
Beta cell apopt: inhibitors of cytokine-induced beta cell apoptosis, primary screen, luminescence. INS-1E cytokine-induced death, ATP luminescence, 48 h; percent of positive-control rescue, neutral wells zero. protection from apoptosis, % (concentration not given with the values). actives 0.8% (n = 300,000). AID 435005, 2010;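 active = all replicates at 75% or more, or half of them and the mean; inconclusive = half reach 75% but not the mean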;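 note: 0% = cytokine-treated negative control wells and 100% = positive control rescue; higher means more ATP so stronger rescue from cytokine killing; wells of about 40 µL received 100 nL stock; the first replicate is given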
Vif TR-FRET: inhibitors of Vif binding to APOBEC3G peptide, primary screen, biochemical, TR-FRET, GST-Vif 1-94, biotin-A3G peptide, dose response retest (AID 1117319). actives 0.57% (n = 260,000). Virion infectivity factor (Human immunodeficiency virus type 1 group M subtype B (isolate …. inhibition, %, or IC50 in µM where a hit was titrated. TR-FRET GST-Vif / biotin-A3G peptide binding; higher % means a stronger effect; test concentration not given here; strong numbers were not always called active;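 active = above the screen mean plus three standard deviations and confirmed in dose response; inconclusive = results disagree or hit not tested in dose response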;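 note: Vif residues 1-94 fused to GST binding biotinylated APOBEC3G peptide 110-148; 0% = full assay without inhibitor and 100% = GST in place of GST-Vif; retest series ran down from 100 µM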
Ecoli rRNA inh OD600: further read-out of Ecoli rRNA inh, marked with its call; OD600 change, %; measured here: OD600 growth;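 optical density of the mix in the first replicate; 0 = DMSO median and -100 = no signal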
Ecoli rRNA inh RFP: also measured in Ecoli rRNA inh; calls as there; RFP signal change, %; measured here: RFP humanized mutant strains;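 first replicate; 0 = DMSO median and -100 = no signal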
An asterisk follows results filed as active; ? = inconclusive; · = not tested or not shown.

entry	Molecule	Ecoli rRNA inh	T cruzi repl	MLL AF4-AF9 inh	A1 inh	Ecoli rRNA inh RFP	Vif TR-FRET	Ecoli rRNA inh OD600	Calb FLC	Beta cell apopt	RanGTP-Impb inh
1	Cc1ccc(C2CC(c3cccs3)=NN2C(=O)CSc2nc(=O)n3ccc(C)cc3n2)cc1 (stereo unspecified)	-4	60*	5.4	0.3	8.6	·	-3	-2	-1	2.1
2	COc1ccccc1/C=C/C(=O)NC(=S)N1CCN(C)CC1	9	·	-0.8	-0.5	1.3	·	14	-2	-2	·
3	COCc1cc(C)nc(OCC(=O)N/N=C/c2ccc(-c3cc([N+](=O)[O-])ccc3C)o2)c1C#N	·	-4	·	0.7	·	14%	·	0	7	-3.2
4	CCCCCn1c(=O)c(Cc2ccccc2)c(O)c2ccccc21	·	16	·	1.0	·	2%	·	29	-1	5.3
5	c1ccc2c(-c3nn4nnnc4c4ccccc34)cccc2c1	·	10	·	-0.2	·	-1%	·	29	·	2.4
6	O=C1c2cc([N+](=O)[O-])ccc2-c2ncccc21	-12	-6	3.9	-0.3	1.3	2%	-7	6	-3	0.0
7	CCS(=O)(=O)c1cc([N+](=O)[O-])c(Sc2ccccc2N)s1	·	-5	·	1.5	·	-2%	·	-1	3	1.4
8	CC(NC(=S)NC(=O)c1ccccc1Br)c1ccccc1 (stereo unspecified)	-32	2	2.6	-0.6	-8.7	·	-35	3	3	5.3
9	COC(=O)/C=C1/S/C(=N/N=C/c2ccc(N(C)C)cc2)NC1=O	·	-10	·	-0.4	·	12%	·	18	-7	2.7
10	CN(CC(=O)Nc1cccc(F)c1)C(=O)c1ccc2c(c1)OCCO2	5	-8	-1.8	-0.4	0.1	-3%	3	1	-1	-1.4
11	COc1ccc(NC(=O)c2cc(-c3ccccc3)oc2C)cc1	·	-13	·	0.0	·	-5%	·	-8	3	9.4
12	COc1cc(C(=O)NCc2ccncc2)cc(Br)c1OCc1ccccc1	-64	-15	1.5	0.6	-19	-2%	-77	1	11	6.6
13	CCCN1CCN(c2ccc([N+](=O)[O-])cc2C#N)CC1	4	-5	1.6	0.3	-0.4	-9%	4	1	1	1.5
14	Cc1ccccc1OCCOC(=O)c1c(-c2ccccc2)noc1C	-6	-12	-3.7	?	-2.3	·	-11	-4	15	2.1
15	O=C(/C=C/c1ccccc1)NCCSCc1ccccc1	·	3	·	0.2	·	-5%	·	-11	·	5.7
16	COc1ccc(NC(=S)NCC2CCCO2)c(C)c1 (stereo unspecified)	3	-8	-11	-0.2	-9.7	6%	5	-7	4	-0.2
17	O=C1C(=O)N(CCN2CCOCC2)C(c2ccncc2)/C1=C(/O)c1ccc2c(c1)OCO2 (stereo unspecified)	·	9	·	-0.7	·	?	·	0	-2	-1.9
18	Cn1c(/C=N/n2cnnc2)nc2ccccc21	-12	0	-5.5	0.0	0.0	-2%	0	-1	-3	-2.4
19	CC1=C(CC/C(C)=N/NC(N)=S)C(C)(C)CCC1	3	52	-2.7	0.0	-4.2	0%	18	-23	17	-2.3
20	O=S(=O)(N[C@H]1C[C@@H](NS(=O)(=O)OCC(Cl)(Cl)Cl)C2CCCCC21)OCC(Cl)(Cl)Cl (stereo partly specified)	-14	-4	3.6	0.5	8.6	·	-13	-7	3	1.8
21	CCCCOc1ccc(/C=C/C(=O)OCC(=O)NC(=O)NCC(C)C)cc1OCC	·	-6	-0.3	0.0	·	0%	·	-5	6	-1.6
22	C/C(=N\N1CCN(c2ccc(Cl)cc2)CC1)c1cccs1	·	-12	·	0.5	·	3%	·	-7	-10	-0.3
23	COCCN1C2=C(COC(C)(C)C2)C(=S)NC1c1ccccc1 (stereo unspecified)	6	4	4.0	-0.6	0.9	-10%	6	-18	5	18*
24	Cc1nc([N+](=O)[O-])cn1CC(=O)Nc1ccc2c(c1)OCO2	19	-3	-3.0	-0.1	1.7	-6%	10	-9	-1	1.7
25	O=c1oc2ccc(Br)cc2cc1-c1nc2ccccc2o1	17	-15	-3.8	1.6	-0.4	-2%	2	-14	-1	-1.4
26	COc1cc(C2CC(=O)Oc3c(C(CCN4CCCC(C)C4)c4ccc(N(C)C)cc4)c(OC)cc(OC)c32)cc(OC)c1OC (stereo unspecified)	1	7	39*	0.4	7.8	·	10	-25	3	-1.7
27	CCOC(=O)C1CCCN(C(=O)C(=O)Nc2ccc3nc4n(c(=O)c3c2)CCCCC4)C1 (stereo unspecified)	-17*	-2	-16	-0.4	-4.6*	·	-7.9*	-1	-3	-0.1
28	Cn1ccnc1C(O)c1ccccc1 (stereo unspecified)	15	0	2.8	2.0	-1.2	·	3	1	-4	5.7
29	CN(CC(=O)Nc1ccc(F)cc1)CC(=O)Nc1ccc(Cl)c(S(=O)(=O)N2CCOCC2)c1	-15	-2	9.8	0.5	5.7	-2%	-10	3	2	1.7
30	COc1ccc(C(=O)N/N=C(\N)c2cc3ccccc3oc2=O)cc1	15	-9	1.3	0.0	0.6	2%	9	7	0	-2.5
31	N/C(=N\OC(=O)COc1ccc(Cl)cc1Br)c1cccnc1	9	14	-2.2	0.1	-0.1	3%	11	-12	3	1.2
32	COc1ccccc1Nc1nc2nonc2[nH]c1=O	-41	-17	0.4	-0.1	-3.1	·	-68	-16	3	?
33	Cn1c(CC(=O)Nc2ccccc2F)nnc1SCC(=O)Nc1nccs1	1	6	-4.1	0.7	0.1	·	13	-5	-6	1.6
34	CC(=O)c1cccc(NC(=O)CN2CCc3cc4c(cc3C2C)OCCCO4)c1 (stereo unspecified)	-2	-2	1.0	0.4	0.5	·	-12	-7	-1	27
35	Cc1ccccc1S(=O)(=O)/N=C(/c1ccccc1)N(C)C	10	-11	2.7	-0.5	1.5	3%	9	-4	-4	-2.2
36	COc1ccc(Cc2nnc(NC(=O)C(C)(C)C)s2)cc1	-1	11	0.2	-0.1	2.3	·	12	-7	4	-4.1
37	CCCc1cc(=O)n2[nH]c(NC(=O)c3ccco3)nc2n1	8	-7	-4.3	-0.2	0.5	·	11	1	0	0.4
38	O=C(CCc1ccccc1)Nc1nccs1	-2	3	1.8	-1.4	-3.9	27%	8	-3	·	-0.6
39	CC(=O)Nc1sc2c(c1C(c1ccccc1Cl)N1CCN(CCO)CC1)CCCC2 (stereo unspecified)	-7	-20	13	-0.5	-6.2	-9%	-24	-6	2	-4.5
40	O=C(CCNC(=O)c1ccccc1)NCCc1ccc(Cl)cc1	7	-2	-4.2	-0.4	-0.7	-2%	9	3	-1	?
41	CCc1cc(-c2n[nH]c(=S)n2-c2ccccc2C)cs1	·	6	·	1.5	·	6%	·	75	1	0.2
42	CC(=O)N1CCc2c(sc(NC(=O)CN3C(=O)c4ccccc4C3=O)c2C(N)=O)C1	1	-10	-0.5	-0.6	4.3	-2%	5	-6	-1	8.3
43	O=C(CCN1CCC(c2ccc(Cl)s2)=N1)c1ccc(Cl)s1	2	-3	-1.4	0.4	2.0	-2%	-1	-7	-1	16*
44	O=C(Nc1cccnc1)c1ccc2snnc2c1	·	4	·	0.0	·	-5%	·	0	2	-0.1
45	Cc1cccc(C(=O)N[C@H](C(=O)Nc2ccc3c(c2)OCO3)C(C)C)c1	3	·	1.5	1.0	-1.3	-4%	-21	·	1	·
46	COc1ccc(NC(=S)N2CCN(C/C=C/c3ccccc3)CC2)c(OC)c1	·	-5	·	0.0	·	-8%	·	0	3	-1.7
47	C=CCn1c(SCCC(=O)O)nc2c1c(=O)n(C)c(=O)n2C	4	1	3.4	-0.8	0.4	30%	-3	1	·	-0.8
48	CCOC(=O)c1c(-c2cccs2)csc1NC(=O)CN1CCOCC1	·	33	·	-0.4	·	-6%	·	-8	10	-2.8
49	COc1ccc(S(=O)(=O)N2CCOC2CNC(=O)C(=O)NCC(C)C)cc1OC (stereo unspecified)	11	12	-3.7	-0.2	-1.6	-4%	4	-8	0	?
50	CCOC(=O)c1ccc(S(=O)(=O)N2CCN(CC(O)COc3cccc(C(C)=O)c3)CC2)cc1 (stereo unspecified)	-7	-4	0.1	2.7	2.5	-3%	-7	1	-1	0.0

(cont.)
entry	Molecule	Ecoli rRNA inh	T cruzi repl	MLL AF4-AF9 inh	A1 inh	Ecoli rRNA inh RFP	Vif TR-FRET	Ecoli rRNA inh OD600	Calb FLC	Beta cell apopt	RanGTP-Impb inh
51	Nc1ncnc2c1C1(CCCCC1)Cc1ccccc1-2	·	5	·	-0.5	·	-3%	·	3	-14	-3.1
52	CC(NC1CCN(Cc2ccccc2)CC1)c1ccc(F)cc1 (stereo unspecified)	13	-9	-1.3	2.6	2.2	·	7	-6	0	3.3
53	CCN(CC)S(=O)(=O)c1ccc(C(=O)Nc2cc(S(=O)(=O)N3CCOCC3)ccc2O)cc1	-5	·	1.9	1.3	-1.2	·	-9	·	-1	·
54	O=C(Nn1c(-c2ccncc2)nc2ccccc2c1=O)c1ccccc1Br	13	-10	-1.0	0.4	0.9	2%	11	-28	·	-0.9
55	CN1C(=O)N2CN(C3CCCCC3)CN3C(=O)N(C)C1C23 (stereo unspecified)	26	-11	-7.7	0.3	-5.9	-1%	23	0	-7	-3.0
56	Cn1c(Cn2c(=O)sc3ccccc32)nnc1SCC(=O)N1CCOCC1	-1	-3	-0.1	0.1	-0.5	0%	10	1	-4	3.1

Screening data: PubChem, several laboratories

A portion of the library (hit frequency here may not be typical).
